# DUX4 txn inh: inhibitors of DUX4-driven ZSCAN4 reporter expression, primary screen, 293T cells, Gaussia and Italica luciferase | 37,000 tested, 0.8% active | 293T-iDUX4 ZSCAN4-Gaussia luciferase reporter, 24 h; hits give low values | activity change, negative = inhibition, % (no concentration beside the values);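 active = -10% or lower and over 25 points stronger than a control reporter; inconclusive = -10% or lower with a smaller gap; inactive = above -10%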;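 note: 0% = median of neutral control wells and -100% = median of positive control wells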
# DUX4 txn inh difference: recorded beside DUX4 txn inh, whose call it bears; Gaussia minus Italica difference, %; measured here: selective DUX4 reporter inhibition;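 worked out from the two reporters; negative = selective loss of the DUX4 reporter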
# DUX4 txn inh control: further read-out of DUX4 txn inh, marked with its call; activity change, negative = inhibition, %; measured here: Italica tet-on control reporter;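 0 = neutral control and -100 = positive control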
# * = called active by the depositor; ? = inconclusive; / = no result given. A portion of the library; count on the stated rates, not on these rows.
Compound	DUX4 txn inh	DUX4 txn inh difference	DUX4 txn inh control
C[C@@H]1CN([C@@H](C)CO)C(=O)c2cc(C#CCc3ccccc3)cnc2O[C@@H]1CN(C)CC1CCOCC1	-0.9	-5.3	4.4
C[C@@H]1CN([C@H](C)CO)C(=O)c2cc(NC(=O)CCC(F)(F)F)ccc2O[C@@H]1CN(C)S(=O)(=O)c1ccc(F)cc1	-3.9	-3.7	-0.2
C[C@@H]1CN([C@@H](C)CO)C(=O)c2cc(-c3ccccc3)cnc2O[C@H]1CN(C)C(=O)c1ccccn1	-0.2	-1.2	1.1
N#C[C@H]1N[C@@H](CO)[C@@H]1c1ccc(C#CC2CCCC2)cc1	-2.6	-3.7	1.1
C[C@@H]1CN([C@H](C)CO)C(=O)c2cc(NC(=O)CCC(F)(F)F)ccc2O[C@@H](C)CCCCO[C@@H]1CN(C)CC1CCCCC1	-2.3	-1.2	-1.2
CN1C(=O)c2cc(NC(=O)c3cccc(C(F)(F)F)c3)ccc2OC[C@@H]2O[C@H](CC(=O)O)CC[C@H]21	2.7	-5.5	8.1
COc1ccc(S(=O)(=O)Nc2ccc3c(c2)C(=O)N([C@H](C)CO)C[C@H](C)[C@@H](CN(C)C(=O)c2ccncc2)OCCCC[C@@H](C)O3)cc1	5.5	1.6	3.9
O=C(C[C@@H]1C[C@@H]2c3cc(NC(=O)Nc4ccccc4F)ccc3O[C@@H]2[C@@H](CO)O1)NCCc1ccccc1	?	/	/
O=C(C[C@@H]1C[C@H]2c3cc(NC(=O)c4cccnc4)ccc3O[C@H]2[C@@H](CO)O1)NCCN1CCCCC1	2.7	-3.5	6.2
CC(C)COC(=O)N(C)C[C@H]1OCc2ccccc2-c2c(n(C)c3ccccc23)C(=O)N([C@H](C)CO)C[C@@H]1C	?	/	/
O=C(C[C@H]1CC[C@@H]2[C@H](COC[C@H](O)CN2S(=O)(=O)c2ccc(F)cc2)O1)N[C@H]1CCN(Cc2ccccc2)C1	-6.2	-2.7	-3.5
CNC[C@H]1Oc2c(NC(=O)c3nc4ccccc4s3)cccc2C(=O)N([C@@H](C)CO)C[C@H]1C	-2.4	0.6	-3.0
C[C@@H]1CN([C@H](C)CO)C(=O)Cc2cc(NS(C)(=O)=O)ccc2O[C@@H]1CN(C)C(=O)Nc1ccccc1	-3.1	-0.4	-2.6
C[C@@H]1CN([C@H](C)CO)C(=O)c2cc(NS(C)(=O)=O)ccc2O[C@@H](C)CCCCO[C@@H]1CN(C)CC1CCCCC1	3.9	2.7	1.2
C[C@@H]1CN([C@@H](C)CO)C(=O)CCCn2nncc2CO[C@H]1CN(C)C(=O)Nc1ccnc(N2CCOCC2)c1	6.0	7.9	-1.9
COc1ccc(C#Cc2ccc([C@@H]3[C@@H](CO)N4CCCCN(Cc5ccccc5F)C[C@@H]34)cc2)cc1	-29.9*	-34.1*	4.2*
CO[C@H]1CN(C)C(=O)c2cc(NC(=O)C3CC3)ccc2OC[C@@H](C)N(C(=O)NC(C)C)C[C@@H]1C	8.3	7.2	1.0
CN1C(=O)c2cc(NS(=O)(=O)c3ccc(F)cc3)ccc2OC[C@H]2O[C@H](CC(=O)NCC(F)(F)F)CC[C@@H]21	-1.2	-2.4	1.2
OC[C@H]1[C@@H](c2ccccc2)C2(CN(CC3CC3)C2)N1Cc1nccs1	-7.7	-5.9	-1.8
CN1CCN(C(=O)C[C@@H]2CC[C@@H]3[C@H](COC[C@@H](O)CN3C(=O)c3ccccc3F)O2)CC1	-5.1	-6.7	1.6
CCCNC(=O)N1C[C@@H](C)[C@@H](OC)CN(C)C(=O)c2ccc(NC(=O)C3CCC3)cc2OC[C@@H]1C	-2.7	-0.5	-2.2
C[C@@H]1CCCCO[C@H](CN(C)C(=O)CCCN(C)C)[C@H](C)CN([C@H](C)CO)C(=O)c2cc(N(C)C)ccc2O1	-2.9	-8.6	5.7
COc1ccccc1S(=O)(=O)N(C)C[C@H]1OCc2ccccc2-c2c(n(C)c3ccccc23)C(=O)N([C@@H](C)CO)C[C@H]1C	-3.9	1.1	-4.9
COc1ccc2c3c(n(C)c2c1)[C@H](CO)N(S(=O)(=O)c1ccc(C)cc1)CC31CN(C(=O)c2ccccn2)C1	?	/	/
C[C@H]1CN([C@@H](C)CO)S(=O)(=O)c2ccc(C#Cc3cccnc3)cc2O[C@H]1CN(C)C(=O)Nc1ccc2c(c1)OCO2	-3.4	-3.2	-0.3

# Later entries
Compound	DUX4 txn inh	DUX4 txn inh difference	DUX4 txn inh control
COCCNC(=O)C[C@@H]1CC[C@@H]2[C@H](COc3ccc(NC(=O)c4cnccn4)cc3C(=O)N2C)O1	2.7	3.6	-0.9
O=C(C1CCCCC1)N1CC2(C1)[C@H](c1ccccc1)[C@H](CO)N2CCC(F)(F)F	?	/	/
C[C@H]1CN([C@@H](C)CO)C(=O)c2ccccc2-c2ccccc2CO[C@H]1CN(C)S(=O)(=O)c1ccc(Cl)cc1	?	/	/
C[C@H](CO)N1C[C@H](C)[C@@H](CN(C)C(=O)Cc2cccnc2)Oc2cc(C3=CCCCC3)ccc2S1(=O)=O	-1.3	-2.5	1.2
COc1ccc2c3c(n(C)c2c1)[C@@H](CO)N(C(=O)c1cnccn1)CC31CN(C)C1	21.3	-11.2	32.5
O=C1NCCOCc2cn(nn2)CC[C@H]1Cc1ccc(F)cc1	-3.5	-3.8	0.3
CN(C)C(=O)c1cccc(-c2ccc3c(c2)[C@H]2[C@H](CCN2Cc2ccccc2F)[C@H](CO)N3)c1	?	/	/
CO[C@H]1CN(C)C(=O)c2ccc(NC(=O)c3ccno3)cc2OC[C@H](C)N(C(=O)C2CCC2)C[C@H]1C	2.9	-1.6	4.5
O=C(Nc1ccc(-c2ccccc2)cc1)[C@H]1[C@H](CO)[C@H]2Cn3c(cccc3=O)[C@@H]1N2Cc1ccncc1	2.0	2.0	0.0
CO[C@H](CN(C)Cc1nccs1)[C@H](C)CN([C@H](C)CO)S(=O)(=O)c1ccc(F)cc1	-1.8	-2.6	0.8
CCN(C[C@H]1[C@H](c2ccc(-c3ccccc3)cc2)[C@H](CO)N1CC1CC1)C(C)=O	1.1	2.5	-1.3
CCCC(=O)N1CC2(CN(C(=O)C3CC3)C2)c2c(n(C)c3cc(OC)ccc23)[C@@H]1CO	13.6	10.0	3.6
COc1cccc(-c2ccc3c(c2)[C@H]2[C@H](CCN2C(=O)c2cccc(F)c2)[C@H](CO)N3)c1	?	/	/
COCC#Cc1ccc([C@H]2[C@@H](CO)N3C(=O)CN(C(=O)C4CCCCC4)C[C@H]23)cc1	2.9	-8.6	11.5
CN1CCN(C(=O)C[C@H]2CC[C@H]3[C@@H](COC[C@@H](O)CN3Cc3cccc(-c4ccncc4)c3)O2)CC1	5.5	13.6	-8.1
CS(=O)(=O)N1[C@H](CO)[C@@H](c2ccccc2)C12CN(C(=O)C1CC1)C2	-0.1	0.4	-0.5
O=C(C[C@H]1C[C@H]2c3cc(NC(=O)NC4CCCC4)ccc3O[C@H]2[C@@H](CO)O1)NCCN1CCCCC1	2.4	2.9	-0.5
CN(C)c1ccc2c(c1)[C@H]1C[C@H](CC(=O)NCc3ccccc3F)O[C@H](CO)[C@H]1O2	3.8	7.9	-4.1
COc1ccc(-c2ccc3c(c2)[C@H]2[C@H](CCN2C(=O)Nc2ccccc2OC)[C@H](CO)N3C)cc1	?	/	/
CCCNC(=O)C[C@H]1CC[C@@H]2[C@H](COC[C@H](O)CN2C(=O)c2cccnc2)O1	9.6	4.3	5.3
COc1ccc(-c2ccc([C@@H]3[C@@H](CO)N4C(=O)CN(Cc5ccc(F)cc5)C[C@@H]34)cc2)cc1	-0.9	5.1	-6.0
COc1ccc(NC(=O)N(C)C[C@H]2OCc3cn(nn3)CCCC(=O)N([C@H](C)CO)C[C@H]2C)c(OC)c1	3.1	3.5	-0.4
COC(=O)C[C@@H]1CC[C@@H]2[C@H](COC[C@@H](O)CN2S(=O)(=O)c2ccc(F)cc2)O1	4.0	3.6	0.4
CC(C)NC(=O)N[C@H]1CC[C@H](CC(=O)NCCCN(C)C)O[C@H]1CO	6.7	5.0	1.7
C/C=C/c1ccc([C@H]2[C@@H](CO)N(CCC(F)(F)F)C23CN(C(=O)COC)C3)cc1	2.9	-12.2	15.0

# The last 4 records of the section above open the next one:
Compound	DUX4 txn inh	DUX4 txn inh difference	DUX4 txn inh control
COc1ccc(NC(=O)N(C)C[C@H]2OCc3cn(nn3)CCCC(=O)N([C@H](C)CO)C[C@H]2C)c(OC)c1	3.1	3.5	-0.4
COC(=O)C[C@@H]1CC[C@@H]2[C@H](COC[C@@H](O)CN2S(=O)(=O)c2ccc(F)cc2)O1	4.0	3.6	0.4
CC(C)NC(=O)N[C@H]1CC[C@H](CC(=O)NCCCN(C)C)O[C@H]1CO	6.7	5.0	1.7
C/C=C/c1ccc([C@H]2[C@@H](CO)N(CCC(F)(F)F)C23CN(C(=O)COC)C3)cc1	2.9	-12.2	15.0
CCC(=O)N1[C@@H](CO)[C@@H](c2ccc(-c3cccnc3)cc2)[C@@H]1CN(CC)C(C)=O	0.7	-1.8	2.5
CN1CCN(C(=O)C[C@@H]2CC[C@H]3[C@@H](COC[C@@H](O)CN3Cc3cccc(F)c3)O2)CC1	5.2	-0.3	5.6
CO[C@H]1CN(C)C(=O)c2ccc(NC(=O)NC(C)C)cc2OC[C@H](C)N(Cc2ccccn2)C[C@H]1C	-2.6	-1.2	-1.4
Cc1noc(C)c1NC(=O)N(C)C[C@H]1Oc2cc(C#CCN(C)C)ccc2S(=O)(=O)N([C@@H](C)CO)C[C@@H]1C	-3.7	-4.7	1.0
CC=Cc1ccc2n(c1=O)C[C@H]1[C@H](CO)[C@@H](C(=O)NCCC)N(CC3CCOCC3)[C@@H]21 (mixture of isomers)	-2.5	-8.4	6.0
C[C@H](CO)N1C[C@H](C)[C@@H](CN(C)C(=O)Nc2ccccc2C(F)(F)F)OCc2ccccc2-c2ccccc2C1=O	16.9	15.9	1.0
CCCC#Cc1ccc2c(c1)[C@H]1[C@H](CCN1S(=O)(=O)c1ccc(C)cc1)[C@H](CO)N2C	4.1	9.6	-5.5
CC(C)(O)C#Cc1ccc([C@H]2[C@@H](CO)N3CCCCN(C(=O)c4ccncc4)C[C@H]23)cc1	13.3	7.5	5.8
COc1ccc(NC(=O)Nc2ccc3c(c2)C(=O)N([C@H](C)CO)C[C@H](C)[C@H](CN(C)C(=O)NC2CCCCC2)OCCCC[C@@H](C)O3)cc1	-0.8	0.1	-0.9
O=C(c1cccc(F)c1)N1CC[C@@H]2[C@H]1c1cc(-c3cccc(F)c3)ccc1N[C@@H]2CO	2.3	-15.3	17.6
C[C@@H]1CN([C@H](C)CO)C(=O)c2cc(N(C)C)ccc2O[C@@H](C)CCCCO[C@H]1CN(C)C(=O)c1ccncc1	8.3	3.2	5.1
O=C(O)C[C@@H]1C[C@@H]2c3cc(NC(=O)Nc4ccccc4F)ccc3O[C@@H]2[C@H](CO)O1	9.7	6.2	3.5
N#C[C@@H]1[C@@H](c2ccccc2C2=CCCCC2)[C@@H](CO)N1C(=O)Cc1ccncc1	-5.2	-7.9	2.7
CN(C)CC(=O)N1CC2(C1)[C@H](c1ccccc1)[C@H](CO)N2Cc1ccccc1F	-4.4	-3.7	-0.7
CCCNC(=O)C[C@H]1CC[C@H]2[C@@H](COC[C@@H](O)CN2CC2CCCCC2)O1	7.2	0.6	6.6
C[C@H]1CN([C@@H](C)CO)C(=O)CCCn2nncc2CO[C@@H]1CN(C)S(=O)(=O)c1ccc(Oc2ccccc2)nc1	8.7	8.5	0.1
C[C@H]1CN([C@@H](C)CO)C(=O)Cc2cc(NC(=O)Cn3cnnn3)ccc2O[C@@H]1CN(C)Cc1ccc(Oc2ccccc2)cc1	4.1	0.6	3.5
COCC(=O)N1[C@H](CO)[C@H](c2ccccc2-c2ccc(C)cc2)[C@@H]1C#N	7.8	0.1	7.7
C[C@@H]1CC=CC[C@H](c2ccc3c(c2)OCO3)NC(=O)[C@@H](Cc2ccccc2)N(C)C(=O)c2ccccc2O1 (mixture of isomers)	1.4	0.9	0.5
O=C(C[C@H]1CC[C@H]2[C@@H](COC[C@@H](O)CN2C(=O)Nc2ccc(Cl)c(Cl)c2)O1)NCc1ccc(F)cc1	-3.1	-6.0	2.9
COc1ccc(-c2ccc([C@H]3[C@H]4CN(C(=O)c5ccc(F)cc5)CCCCN4[C@H]3CO)cc2)cc1	?	/	/
O=C(C[C@H]1C[C@@H]2c3cc(NC(=O)c4ccc5c(c4)OCO5)ccc3O[C@@H]2[C@@H](CO)O1)NCC(F)(F)F	?	/	/
O=C(c1ccccc1F)N1CC(=O)N2[C@H](CO)[C@H](c3ccc(-c4ccc(F)cc4)cc3)[C@H]2C1	-0.4	3.4	-3.8
O=C(c1ccccc1F)N1C[C@H]2[C@@H](c3ccccc31)[C@@H](CO)N2Cc1ccc2c(c1)OCO2	2.3	2.3	0.0
CCC(=O)N(C)C[C@@H]1Oc2cc(C#Cc3ccncc3)ccc2S(=O)(=O)N([C@@H](C)CO)C[C@H]1C	0.9	-1.7	2.6
CC=Cc1ccc2n(c1=O)C[C@H]1[C@H](CO)[C@@H](C(=O)NCCC)N(CC3CC3)[C@@H]21 (mixture of isomers)	-5.6	-9.6	4.0
O=C(C[C@H]1C=C[C@@H](NS(=O)(=O)c2ccc(F)cc2)[C@H](CO)O1)NCc1ccncn1	-4.5	0.1	-4.7
O=C(Cc1ccccn1)N1CC2(C1)[C@@H](c1ccccc1)[C@@H](CO)N2C(=O)c1ccncc1	?	/	/
